Bioassay records from PubChem.
Calb FLC – C. albicans growth inhibition with fluconazole, primary screen, CaCi-2 strain, Alamar Blue fluorescence; C. albicans CaCi-2 (fluconazole-resistant clinical isolate) + fluconazole, 48 h; growth inhibition, % (no concentration beside the values); hit rate 0.57% among 300,000;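 active = most replicates above 75%; inconclusive = exactly half above 75%; inactive = most below 75%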;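 note: all wells also contain fluconazole at 8 µg/ml as a sub-toxic cotreatment; 0% = median of DMSO wells and 100% = median of geldanamycin control wells; wells of about 8 µL received 7.5 nL stock; the first replicate is given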
T cruzi repl – inhibitors of intracellular T. cruzi growth, primary screen, luminescence, NIH3T3 host cells. hit rate 1.4% among 300,000. inhibition, % (no concentration beside the values). AID 1885, 2009. T. cruzi beta-gal in NIH3T3, 90 h;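 active = mean inhibition across valid replicates above about 55%, limit read from the data; inconclusive = mean below that limit but half or more replicates reach it; inactive = mean below it, under half of replicates reach it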;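 note: signal also drops with host cell toxicity which is not excluded here; 0% = plate median of DMSO wells and 100% = zero luminescence signal; higher percent means less beta-gal luminescence so fewer parasites; stock transfer was 50 nL into about 50 µL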
ALR inh – inhibitors of human ALR sulfhydryl oxidase, primary screen, biochemical, H2O2 detection, HRP-luminol luminescence, single point; AID 485317, 2010; hit rate 3.8% among 290,000; inhibition, % (test concentration not listed); purified ALR, DTT oxidation; FAD-linked sulfhydryl oxidase ALR (Homo sapiens), P55789;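 active = mean and each replicate at 75% or more; inconclusive = only one of the two met; inactive = neither met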;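 note: stock transfer was 7.5 nL into about 7.5 µL; 0% = neutral wells and 100% = wells with inactivated enzyme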
Target sequence (P55789 whole entry, looked up): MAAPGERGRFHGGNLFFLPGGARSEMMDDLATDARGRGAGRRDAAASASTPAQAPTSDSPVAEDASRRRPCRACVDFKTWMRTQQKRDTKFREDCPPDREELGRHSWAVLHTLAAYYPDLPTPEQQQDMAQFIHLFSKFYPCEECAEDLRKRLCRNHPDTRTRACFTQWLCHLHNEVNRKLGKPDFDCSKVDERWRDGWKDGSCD
LANA-H2B inh – blockers of LANA interaction with H2A/H2B – biochemical, FP readout, HTS, primary screen. Protein LANA1 (Human herpesvirus 8 type P (isolate GK18)), Q9QR71. cell-free LANA-H2A/H2B peptide, fluorescence polarization. inhibition, % (concentration not given with the values). hit rate 0.6% among 320,000; in the data active = inhibition mostly above about 10%, no sharp cut-off; inactive = mostly below about 6.7%;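 note: stock transfer was 7.5 nL into about 10 µL; 0% = median of vehicle wells and 100% = median of positive control wells; one replicate is shown; the record names a cut of 25% in any replicate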
Bfl-1 A1 inh – caspase 3/7 activation in MEF A1-2A-BIM cells, primary screen, A1 inhibitor project, cell-based, luminescence, HTS | Caspase-Glo 3/7 luminescence, 3 h; percent of clofoctol response, vehicle zero | caspase activation, % (concentration not given with the values) | hit rate 0.066% among 330,000;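 active = over half of replicate activation scores above 10%, or exactly half above 10 with the replicate mean above 10; inconclusive = replicate mean below 10 yet half the replicates above 10; inactive = over half of replicates below 10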;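 note: wells of about 30 µL received 50 nL stock; many hits fall short of the cut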
rRNA inh HTS – reduced GFP signal of wild-type E. coli, primary screen, bacterial rRNA inhibitor project, GFP/RFP fluorescence, OD600, single point | E. coli WT GFP vs humanized-ribosome RFP mutants, 24 h; stronger effect = lower value; DMSO median 0, no signal -100 | GFP signal change (wild-type ribosome), % (test concentration not listed) | hit rate 1.6% among 350,000 | AID 720706, 2013;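 active = significant combined selectivity score with lowered wild-type GFP, culture density cut under 30%, mutant RFP and density less affected; inactive = any of these conditions unmet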; note: one replicate is shown; some compounds called inactive have numbers as strong as hits
B2AR ag – beta2AR agonists driving receptor internalization, primary screen, cell-based, FAP fluorogen, flow cytometry; Beta-2 adrenergic receptor (Homo sapiens), P07550; Am2.2-beta2AR cells; reference of the scale not given here; response, % (no concentration beside the values); hit rate 0.43% among 340,000;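 active = response above a set limit, near 3 SD of response in nonfluorescent compounds, cut at about 42% in these data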;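 note: stock transfer was 100 nL into about 11 µL; a reference agonist was the positive control; negative values mostly stem from fluorescent compounds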
Target sequence (P07550 whole entry, looked up): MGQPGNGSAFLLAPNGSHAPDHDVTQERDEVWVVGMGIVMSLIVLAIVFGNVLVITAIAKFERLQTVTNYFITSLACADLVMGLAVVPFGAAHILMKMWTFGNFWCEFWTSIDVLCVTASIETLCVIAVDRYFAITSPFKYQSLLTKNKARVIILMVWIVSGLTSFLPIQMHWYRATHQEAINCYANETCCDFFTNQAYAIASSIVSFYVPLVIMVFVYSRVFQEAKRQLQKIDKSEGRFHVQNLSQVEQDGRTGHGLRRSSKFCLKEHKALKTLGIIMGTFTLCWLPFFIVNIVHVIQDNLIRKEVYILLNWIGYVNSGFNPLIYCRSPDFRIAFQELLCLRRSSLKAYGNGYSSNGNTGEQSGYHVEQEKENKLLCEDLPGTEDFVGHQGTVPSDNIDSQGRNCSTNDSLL
Beta cell apopt – inhibitors of cytokine-induced beta cell apoptosis, primary screen, luminescence. hit rate 0.8% among 300,000. INS-1E cytokine-induced death, ATP luminescence, 48 h; percent of positive-control rescue, neutral wells zero. protection from apoptosis, % (concentration not given with the values);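 active = all replicates at 75% or more, or half of them and the mean; inconclusive = half reach 75% but not the mean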;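 note: 0% = cytokine-treated negative control wells and 100% = positive control rescue; higher means more ATP so stronger rescue from cytokine killing; wells of about 40 µL received 100 nL stock; the first replicate is given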
rRNA inh HTS OD600 – further read-out of rRNA inh HTS, marked with its call; OD600 change, %; measured here: OD600 growth;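 optical density of the mix in the first replicate; 0 = DMSO median and -100 = no signal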
rRNA inh HTS RFP – recorded beside rRNA inh HTS, whose call it bears; RFP signal change, %; measured here: RFP humanized mutant strains;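 first replicate; 0 = DMSO median and -100 = no signal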
Active calls of the source: *; ? = inconclusive; nt = not tested or not shown. This is a subset (hit frequency here may not be typical).

SMILES | Calb FLC | T cruzi repl | ALR inh | LANA-H2B inh | Bfl-1 A1 inh | rRNA inh HTS | rRNA inh HTS OD600 | rRNA inh HTS RFP | B2AR ag | Beta cell apopt
O=C(NC1CC1)C1CCN(C2CCN(C(=O)c3ccc(C(F)(F)F)cc3)CC2)CC1 | 9 | -6 | -1 | -3.0 | -0.7 | 4 | 4 | 4.0 | -1 | -4
CCCn1c(=S)[nH]c2cc(C(=O)N3CCc4ccccc43)ccc2c1=O | -20 | 8 | -3 | 2.7 | -1.1 | nt | nt | nt | 7 | 18
Cc1cc(C(=O)N2CCC(CO)(Cc3cccc(C(F)(F)F)c3)CC2)n[nH]1 | -13 | 5 | -1 | -2.3 | 0.4 | -3 | -4 | -2.5 | 2 | 2
CC1CCN(C(=O)CSc2nnc(-c3ccco3)o2)CC1 | 3 | -2 | nt | 2.2 | 0.4 | -4 | -1 | -1.2 | -10 | -2
Cc1cc(C)c(C#N)c(SCC(=O)N2CCN(Cc3ccccc3)CC2)n1 | -2 | nt | -21 | 8.6 | 0.2 | nt | nt | nt | -11 | -3
N#CN=C(N)c1ccccc1 | 4 | -14 | 3 | -0.5 | 0.2 | nt | nt | nt | -3 | 6
O=C(CN1CCN(Cc2ccccc2F)C1=O)NCCc1ccc(Cl)cc1 | 28 | 16 | nt | -4.8 | 0.7 | -2 | -16 | 3.0 | -1 | -10
CCCCc1nnc(NC(=O)COC)s1 | 7 | 4 | 6 | 3.4 | 0.7 | 11 | 6 | -0.2 | 3 | -2
COc1ccc(NC(=O)CC(C)CC(=O)NCc2ccccc2)c(OC)c1 (stereo unspecified) | 7 | -6 | -19 | -5.6 | 1.3 | 18 | 9 | 0.8 | -2 | 5
COc1ccc(N2CCN(CCCNC(=O)CCCn3c(=O)[nH]c4ccsc4c3=O)CC2)cc1 | 2 | 0 | 93* | -3.1 | -1.3 | nt | nt | nt | -14 | 0
Cc1cc(C(=O)CN2C(=O)NC(Cc3c[nH]c4ccccc34)C2=O)c(C)n1C (stereo unspecified) | -8 | -4 | 4 | 0.3 | 0.0 | nt | nt | nt | 1 | nt
CCCCNC(=S)NNC(=O)c1ccco1 | -5 | -7 | 59 | -0.7 | -0.2 | nt | nt | nt | -1 | 0
CCSc1nnc(C)c(=O)n1COC(=O)c1ccc(S(=O)(=O)N2CCCC2)cc1 | -4 | -6 | -2 | 3.4 | -0.4 | nt | nt | nt | 0 | 0
O=C(Nc1sc2c(c1C(=O)O)CCC2)c1ccc(F)cc1 | -2 | -32 | 59 | -1.6 | -5.8 | -11 | -22 | -1.7 | -3 | 1
CCOC(=O)c1c(C)[nH]c(C)c1C(=O)COc1ccc(NC(=O)c2ccco2)cc1 | -10 | 5 | -2 | -1.3 | 0.9 | nt | nt | nt | -17 | -5
Cc1ccc2nc(CSc3nnc(-c4ccco4)o3)cc(=O)n2c1 | 21 | 11 | ? | 4.7 | -0.1 | nt | nt | nt | -1 | -1
CNC(=O)[C@@]1(C)C=C[C@@H](Cc2ccccc2)N1C(=O)OC | 1 | -10 | -4 | 2.1 | -0.6 | nt | nt | nt | 8 | -1
CCCn1c(=O)c2sccc2n2c(CCCC(=O)NC3CCN(Cc4ccccc4)CC3)nnc12 | 0 | 16 | 0 | 1.5 | -0.3 | 16 | 16 | 3.4 | 1 | 8
NC(=O)c1c(NC(=O)c2ccncc2)sc2c1CCCC2 | 73* | 25 | nt | 3.0 | 0.4 | -6 | -9 | -0.9 | -4 | -1
COc1ccc(C(=O)NCc2nnc(SCC(=O)NCCc3ccccc3)o2)cc1 | 2 | 0 | 1 | 8.1 | 0.3 | 5 | 12 | -2.1 | -4 | -7
CN(C)c1ccc(/C=N/N(Cc2ccccc2)c2ccccc2)cc1 | 15 | 17 | -4 | 2.3 | 0.9 | nt | nt | nt | -4 | 11
O=C(NCC1CC1)Nc1ccccc1F | -2 | -17 | 15 | 0.8 | -1.4 | 2 | 9 | -1.7 | 6 | -4
Clc1cccc(CSc2ncn(-c3ccccc3)n2)c1 | 18 | 24 | 5 | 0.2 | 0.3 | -48 | -63 | -3.6 | -28 | nt
O=C(O)COc1ccc(/C=N/NC(=O)c2cn(-c3ccccc3)nc2-c2ccccc2)cc1 | 5 | -14 | 6 | 2.8 | -0.2 | -4 | -6 | -0.2 | -2 | -1
CCOC(=O)c1cc(C(=O)OCC)c(=O)[nH]c1N1CCCC1 | 32 | 5 | 11 | 2.3 | 0.1 | -5 | -6 | -2.0 | -1 | -3
CCOc1ccc(C=NNC(=O)c2ccc(-n3cnnn3)cc2)cc1 | nt | nt | -4 | 5.2 | -0.2 | 6 | 11 | -0.8 | -11 | 0
CC1(C)CC(=O)C2=C(C1)OC(N)=C(C#N)C2c1cccc(OC(=O)c2ccco2)c1 (stereo unspecified) | 9 | -13 | 8 | 10 | 0.7 | 1 | 1 | -1.4 | -2 | -8
Cc1nc(CNC(=O)CC2C(=O)NCCN2Cc2cccc(Oc3ccccc3)c2)cs1 (stereo unspecified) | -5 | 0 | -14 | 2.2 | -0.3 | 2 | 5 | -1.0 | -10 | -3
COc1ccc(C(=O)N(C)Cc2ccccn2)cc1OC1CCN(C(C)C)CC1 | -13 | 9 | -4 | -7.8 | -0.7 | 16 | 22 | 0.8 | -1 | nt
CCOC(=O)/C(=C\c1ccc([N+](=O)[O-])o1)NC(=O)c1ccccc1 | 68 | 68* | -24 | 0.9 | 0.9 | nt | nt | nt | 10 | -8
C=C(C)COc1ccc(-c2[nH]ncc2-c2ccccc2)c(O)c1 | 1 | -20 | ? | 2.5 | 0.3 | nt | nt | nt | -3 | 0
NC(=O)CC(NC(=O)Cc1cccc2ccccc12)c1ccc(N2CCN(c3ccccc3)CC2)c([N+](=O)[O-])c1 (stereo unspecified) | -5 | -23 | 3 | 2.6 | 0.9 | nt | nt | nt | 8 | -6
CCc1ccccc1NC(=S)NCCSc1ccc(Cl)cc1 | -8 | 39 | -3 | 2.1 | 0.8 | -46 | -78 | -10.0 | 22 | -3
O=C(Nc1cccc(F)c1)c1cc(S(=O)(=O)N2CCC3(CC2)OCCO3)ccc1F | -24 | 10 | -6 | 3.8 | -0.6 | -14 | -13 | 2.7 | nt | -2
O=C(/C=C/c1ccc2ccccc2n1)c1cc(Br)ccc1O | 5 | 15 | nt | -7.0 | 0.8 | 19 | 12 | 2.8 | -57 | -5
CC(C)Cc1nnc(NC(=O)CCC(=O)Nc2ccccc2F)s1 | -5 | 3 | -13 | 3.8 | 2.2 | 14 | 8 | 2.0 | 7 | 1
CCO[C@@H]1OC(C(=O)NC2CC2)=C[C@H](c2c[nH]c3ccccc23)[C@H]1CCCO | -2 | 5 | 7 | 0.3 | -1.9 | nt | nt | nt | -7 | -3
Nc1ccc(CCNc2ncnc3c2ncn3[C@@H]2O[C@H](CO)[C@@H](O)[C@H]2O)cc1 | nt | 2 | 23 | 3.6 | -0.1 | nt | nt | nt | 0 | 0
CCCC(=O)OCC(=O)NC1CCCc2ccccc21 (stereo unspecified) | -2 | 7 | -3 | -0.7 | 0.9 | 7 | 5 | -3.4 | 2 | -6
N#Cc1ccc(NC(=O)CNc2cc(S(=O)(=O)N3CCOCC3)ccc2NCC2CCCO2)cc1 (stereo unspecified) | -19 | 7 | -15 | 1.6 | 1.5 | 18 | 2 | 25 | 4 | -2
O=C(CSc1nnc(CNC(=O)c2ccco2)o1)Nc1cccc(F)c1 | 15 | -14 | -2 | 0.2 | 0.8 | 3 | 4 | 0.2 | -7 | -8
C=CCN1C(=O)C(Cc2ccc(C)cc2)S/C1=N/N=C/c1ccco1 (stereo unspecified) | 5 | 9 | 2 | 2.1 | -0.1 | 4 | 10 | -3.0 | -10 | -5
CCCOc1ccc(C(O)C(CN2CCOCC2)c2ccccc2)cc1 (stereo unspecified) | -8 | 1 | -2 | -7.1 | 0.2 | 13 | 6 | 2.4 | -4 | 3
O=C(N/C(=C\c1cccc([N+](=O)[O-])c1)C(=O)N1CCOCC1)c1cccc(Br)c1 | 52 | -2 | 2 | 3.3 | 1.2 | 5 | 4 | -2.4 | 7 | nt
CC(=O)Nc1ccc(NC(=O)CSc2ncnc3c2cnn3Cc2ccccc2)cc1 | -2 | 4 | -10 | 2.8 | -1.0 | 17 | 5 | 0.7 | 2 | 7
Cc1ccc(C)c(OCC(=O)Nc2ccc(S(=O)(=O)Nc3ccccn3)cc2)c1C | -18 | -9 | -6 | -3.7 | 0.3 | nt | nt | nt | 18 | nt
O=C(c1ccccc1Br)N1CCN(c2ccc([N+](=O)[O-])c(N3CCOCC3)c2)CC1 | 0 | -6 | -16 | -4.9 | -0.3 | 1 | -3 | -2.6 | -4 | 2
Cc1ccc(NC(=O)C2CCCCC2)c(O)c1 | 38 | -22 | -3 | -1.5 | -0.2 | nt | nt | nt | nt | 6
Cc1ccc(S(=O)(=O)NCC(=O)OCC(=O)Nc2ccccc2OC(F)F)cc1 | 16 | 3 | -8 | -0.9 | -0.2 | -3 | -6 | -2.8 | 2 | -9
COc1ccc(C(=O)NCC(=O)OCC(=O)NCc2ccc3c(c2)OCO3)cc1 | nt | nt | -5 | 1.3 | -1.4 | 5 | 5 | 0.1 | 3 | 1
CCN(CC)S(=O)(=O)c1cccc(-c2nnc(SCCOc3ccccc3)o2)c1 | 9 | 32 | -15 | 7.5 | -0.2 | -10 | -15 | -11 | 4 | -2
CCO[C@H]1OC(C(=O)N2CCN(C)CC2)=C[C@@H](c2ccc3c(c2)OCO3)[C@@H]1CCCO | 1 | -4 | -4 | 0.0 | 0.4 | 0 | 11 | -3.9 | 3 | 8
COc1ccc(CCN2CC(C(=O)NCc3cc(C(C)C)no3)CCC2=O)cc1 (stereo unspecified) | 1 | -7 | nt | nt | nt | 0 | 0 | -0.1 | 1 | nt
N#Cc1nc(-c2ccco2)oc1NCCCN1CCOCC1 | 6 | 0 | 35 | 8.5 | 1.1 | 9 | 7 | -5.4 | -4 | -1
Cc1ccccc1OCC(=O)N/N=C1\CC(=O)CC(C)(C)C1 | -3 | -6 | 2 | 0.7 | -0.6 | 9 | 2 | 35 | -1 | -3
Cc1ccc(S(=O)(=O)Nc2ccncc2)c(C)c1N(C)S(=O)(=O)c1ccc(F)cc1 | 22 | -14 | -17 | 0.7 | -2.3 | nt | nt | nt | 84* | 2
O=C1OCC(c2ccccc2)=C1c1ccc(S(=O)(=O)N2CCOCC2)s1 | -19 | 1 | -27 | -5.4 | -1.3 | nt | nt | nt | 0 | 1
COc1ccc(C(=O)N[C@H]2CCCCNC2=O)cc1OC1CCN(C(C)C)CC1 | 0 | -6 | -3 | -0.6 | 0.9 | 11 | 24 | 3.5 | 3 | -3
